Screening results from PubChem BioAssay.
Rango dissoc inh: qHTS Assay for Inhibitors of RanGTP induced Rango (Ran-regulated importin-beta cargo) - Importin beta complex dissociation; Biochemical FRET Rango-importin beta, RanGTP-induced dissociation; Potency, µM (top dose mostly 46.1 µM), for the others: top-dose activity change, negative = inhibition; actives 0.071% (n = 340,000); active means falling FRET ratio curve, often poorly fitted, with flat reads before Ran was added; inconclusive means other falling curves, or compound fluorescence or quenching; inactive means flat or rising ratio curve;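 note: potency is the fitted concentration of half-maximal effect; % of control where 0% means no effect; nearly all actives have a fitted effect of over 45% in size; -100% = wells without RanGTP and RCC1; the record marks most hits as doubtful in a second field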
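Rango (0.1 uM)–importin beta (0.25 uM) complex; RanGTP-RCC1 trigger; 45 min RT; CFP/YFP FRET read.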
miR-21 reporter: qHTS Assay for Modulators of miRNAs and/orActivators of miR-21; HeLa miR-21 FLuc reporter, luciferase, 48 h; 340,000 tested, under 10 active; Potency, µM (titrated, usually from 38.3 µM), for the others: at the highest dose reporter change, positive = more light; active = well fitted rising curve with a large enough effect; inconclusive = small, poorly fitted or top-dose-only effect; inactive = no such curve, though single readings can be large or run the other way;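 note: % of control where 0% means no effect; miR-21 action dims this reporter so a rising signal means less miR-21 action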
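Compounds were titrated across several concentrations (up to approximately 40 uM) and incubated 48 hours with HeLa miR-21-FLuc reporter cells (miR-21 target sequence downstream of FLuc, endogenous miR-21). Readout was firefly luciferase luminescence after lytic detection reagent.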
GLA inh pH 4.5: qHTS Assay for Inhibitors of Human alpha-Galactosidase at pH 4.5. Alpha-galactosidase A (Homo sapiens), P06280. purified enzyme, 4-MU-alpha-Gal fluorescence, pH 4.5. activity change, negative = inhibition, % at 105 µM. 230,000 tested, under 10 active. AID 1467, 2008; inconclusive = small, poorly fitted or top-dose-only inhibition, or a rising curve; inactive = flat fitted curve, though single readings scatter; no compound was filed as active;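 note: 0% = full activity with enzyme and -100% = basal without enzyme; dose as in the result columns while the protocol names 77 µM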
Rango-impB inh: qHTS Assay for Inhibitors of Rango (Ran-regulated importin-beta cargo) - Importin beta complex formation | Importin subunit beta-1 (Homo sapiens), Q14974 | Rango CFP/YFP FRET sensor + importin beta, 45 min | Potency, µM (highest dose often 92.2 µM), without a hit: at the highest dose inhibition of complex formation | actives 0.031% (n = 340,000); active = rising FRET ratio curve, often small or poorly fitted; inconclusive = mostly compound fluorescence or quenching in the first reads; inactive = flat curves in all reads;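 note: potency is the fitted concentration of half-maximal effect; 0% = DMSO wells and 100% = buffer wells lacking importin beta; nearly all actives have a fitted effect of over 15% in size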
Target sequence (Q14974 whole entry, looked up): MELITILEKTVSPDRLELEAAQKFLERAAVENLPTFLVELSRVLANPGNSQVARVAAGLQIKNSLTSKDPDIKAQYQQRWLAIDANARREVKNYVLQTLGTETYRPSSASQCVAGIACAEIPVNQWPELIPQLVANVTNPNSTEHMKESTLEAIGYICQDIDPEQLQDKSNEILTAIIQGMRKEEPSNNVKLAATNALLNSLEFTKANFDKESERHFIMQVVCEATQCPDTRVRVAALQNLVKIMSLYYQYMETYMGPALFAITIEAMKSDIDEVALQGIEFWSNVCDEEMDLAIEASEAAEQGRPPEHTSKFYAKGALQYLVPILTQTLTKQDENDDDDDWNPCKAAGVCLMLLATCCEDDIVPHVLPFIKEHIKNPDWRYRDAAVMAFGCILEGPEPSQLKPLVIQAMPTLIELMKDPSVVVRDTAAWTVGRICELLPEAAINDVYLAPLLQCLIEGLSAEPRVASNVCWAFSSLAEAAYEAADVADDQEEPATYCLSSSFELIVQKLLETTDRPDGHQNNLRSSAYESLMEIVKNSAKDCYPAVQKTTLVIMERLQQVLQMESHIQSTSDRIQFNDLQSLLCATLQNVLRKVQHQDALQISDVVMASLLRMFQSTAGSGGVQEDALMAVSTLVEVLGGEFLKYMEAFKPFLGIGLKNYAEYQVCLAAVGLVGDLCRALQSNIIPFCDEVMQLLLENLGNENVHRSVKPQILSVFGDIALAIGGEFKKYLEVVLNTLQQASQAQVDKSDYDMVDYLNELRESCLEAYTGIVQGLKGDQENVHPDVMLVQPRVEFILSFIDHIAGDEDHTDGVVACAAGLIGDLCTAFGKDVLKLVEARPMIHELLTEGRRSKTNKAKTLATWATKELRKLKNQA
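FRET biosensor (snurportin 1 IBB flanked by EYFP and cerulean), 50 nM, with compound 5 min, then 0.125 microM importin beta in PBS, 1 mM DTT, 0.02% Tween-20, 0.1% BSA. CFP/YFP ratio read after 45 min at room temperature; pre-read flags interference.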
* marks the source's active call; other numbers are inactive results; ? = inconclusive; / = not tested or not shown; & = joins results of further samples.

cpd	SMILES	Rango dissoc inh	miR-21 reporter
1	COC(=O)CCNC(=O)Cn1cnc2sc3c(c2c1=O)CCCC3	0.4%	3.1%
2	COc1cc2c(cc1NC(=O)C(C)OC(=O)/C=C/c1ccc(OC(F)F)cc1)oc1ccccc12 (configuration not stated)	29.5%	-13.9%
3	O=C(CN1CCN(S(=O)(=O)c2ccccc2Cl)CC1)NCC1(N2CCOCC2)CCCCC1	6.4%	/
4	Cc1cccc(S(=O)(=O)NNC(=O)c2cc(-c3ccc(F)cc3)nc3ccccc23)c1	-12.1%	-0.5%
5	Cc1ccc(CS(=O)(=O)CCC(=O)NCc2ccccn2)cc1	3.4%	-0.3%
6	C[C@@H]1CN(Cc2nc(-c3ccc(Cl)cc3)no2)C[C@H](C)O1	0.3%	-2.3%
7	Cc1cc(C)c2nc(NC(=O)CN3C(=O)NC4(CCCC4)C3=O)sc2c1	-7.0%	/
8	CC(C)CN(C(=O)c1ccc(F)cc1F)c1c(N)n(CC(C)C)c(=O)[nH]c1=O	-16.3%	0.7%
9	COC(=O)c1cc(-c2cc(OC)ccc2OC)nc2c1c(=O)n(C)c(=O)n2Cc1ccccc1	-0.3%	0.9%
10	CCCCC[C@@H]1C=C(C(=O)O)[C@H](c2ccc(Cl)cc2)N1S(=O)(=O)c1ccc(C)cc1	9.8%	/
11	CN(C)c1ccc(/C=N/NS(=O)(=O)c2ccc(Br)cc2)cc1	-7.3%	-6.5%
12	Oc1cc2c(cc1O)C(c1ccccc1)CNCC2 (configuration not stated)	-15.5%	/

cpd	GLA inh pH 4.5	Rango-impB inh
1	-1.0	0.5%
2	4.5	3.8%
3	/	-0.3%
4	6.8	-2.0%
5	3.0	-0.2%
6	-6.1	4.1%
7	/	-0.3%
8	/	-0.2%
9	/	-0.4%
10	/	-0.2%
11	-29.2	-0.1%
12	-3.5&4.2	-1.2%

The list continues.
cpd	SMILES	Rango dissoc inh	miR-21 reporter
13	Cc1ccc(C)c(OCCCCn2cnc3ccccc3c2=O)c1	-12.1%	-12.9%
14	Cc1ccn2c(=O)c(NC(=O)c3cccs3)c(C)nc2c1	-7.0%	/
15	CCC(C)n1c(SCC(=O)NC(=O)c2cccn2C)nc2ccccc2c1=O (configuration not stated)	-10.5%	5.9%
16	CN1CCc2c(sc(NC(=O)CS(=O)(=O)c3ccccc3)c2C(N)=O)C1	23.1µM*	/
17	COc1ccc(-n2nc(C(=O)NCC(=O)Nc3ccc(F)cc3)c3ccccc3c2=O)cc1	-1.1%	3.1%
18	Cc1cccc(OCCN2CCOCC2)c1C	5.4%	-0.7%
19	CCC(C)(C)NC(=O)c1cc(S(=O)(=O)N2CCCCC2)ccc1N1CCOCC1	6.6%	-6.2%
20	Cc1ccc(OCC(=O)Nc2cccc(O)c2)cc1C	0.7%	-48.6%
21	Cc1cc(C)cc(NC(=O)CSc2nc3ccncc3[nH]2)c1	1.5%	-3.0%
22	COc1ccc(S(=O)(=O)N2CCC(C(=O)NCC3CC3)CC2)cc1	4.9%	0.6%
23	CCn1c(CNC(=O)c2cccc(C)c2)nnc1SCC(=O)Nc1nnc(C)s1	-10.0%	-0.4%
24	COC(OC)c1ccnc(-c2ccc(OC(=O)c3ccc(F)cc3)cc2)n1	10.7%	-2.4%

cpd	GLA inh pH 4.5	Rango-impB inh
13	10.7	-0.6%
14	/	6.0%
15	-2.4	-1.3%
16	/	?
17	/	-0.5%
18	/	0.0%
19	-0.8	0.9%
20	3.7	0.7%
21	-6.0	1.2%
22	/	0.7%
23	/	-1.4%
24	-5.6	-1.7%

Of the compounds above, these have a thiophene ring, fused or not.
cpd	SMILES	Rango dissoc inh	miR-21 reporter
1	COC(=O)CCNC(=O)Cn1cnc2sc3c(c2c1=O)CCCC3	0.4%	3.1%
14	Cc1ccn2c(=O)c(NC(=O)c3cccs3)c(C)nc2c1	-7.0%	/
16	CN1CCc2c(sc(NC(=O)CS(=O)(=O)c3ccccc3)c2C(N)=O)C1	23.1µM*	/

cpd	GLA inh pH 4.5	Rango-impB inh
1	-1.0	0.5%
14	/	6.0%
16	/	?

(next part)
cpd	SMILES	Rango dissoc inh	miR-21 reporter
25	CN(C/C=C/c1ccccc1[N+](=O)[O-])Cc1ccccc1	0.4%	-13.3%
26	Cn1nnnc1-c1cc(Br)ccc1NC(=O)c1ccccc1	-6.2%	-0.6%
27	Cc1cccc(C)c1NC(=O)c1sc(N)nc1-c1ccccc1	-2.1%	-9.3%
28	Fc1cccc(CN2CCN(Cc3nc(CCc4ccccc4)no3)CC2)c1	23.5%	-1.1%
29	Cc1ccc(-n2nc3c(c2NC(=O)c2ccc(OC(C)C)cc2)CS(=O)C3)cc1 (configuration not stated)	4.4%	0.4%
30	Fc1ccccc1/C=C1\CCCC2=C1Nc1nnnn1C2c1ccccc1F (configuration not stated)	-5.5%	0.7%
31	CS(=O)(=O)c1cccc(C(=O)Nc2cccc(-c3nc4ccccc4[nH]3)c2)c1	1.7%	-11.4%
32	Nc1nc2ncc(C(=O)c3cc(Cl)cc(Cl)c3O)cc2s1	?	-7.6%
33	COC(=O)c1sc(N2CCN(c3ccc(Cl)cc3)CC2)nc1N	-0.1%	4.2%
34	CCC(=O)N1CCN=C1SCc1c(F)cccc1Cl	3.8%	-5.2%
35	Cc1ccc(S(=O)(=O)NCCC(=O)OCC(=O)N(Cc2ccccc2)C(C)(C)C)cc1C	5.3%	/
36	COc1ccc(CC(=O)Oc2ccc(C(C)(C)C)cc2)cc1S(=O)(=O)N1CCOCC1	39.8%	/

cpd	GLA inh pH 4.5	Rango-impB inh
25	/	-0.5%
26	3.1	4.6%
27	6.1	5.2%
28	6.9	-0.9%
29	-11.4	0.4%
30	3.6	3.8%
31	/	2.6%
32	-2.1	?
33	2.4	-0.8%
34	/	-4.0%
35	/	-2.3%
36	/	-0.5%

Profiles, quoted from the list. Screens in order: Rango dissoc inh, miR-21 reporter, GLA inh pH 4.5, Rango-impB inh
Entry for COc1cc2c(cc1NC(=O)C(C)OC(=O)/C=C/c1ccc(OC(F)F)cc1)oc1ccccc12 (configuration not stated) = 29.5%, -13.9%, 4.5, 3.8%
Entry for CCn1c(CNC(=O)c2cccc(C)c2)nnc1SCC(=O)Nc1nnc(C)s1 = -10.0%, -0.4%, /, -1.4%

(more compounds)
cpd	SMILES	Rango dissoc inh	miR-21 reporter
37	Cc1cc(Cl)c2oc(C(=O)N(C)CCCCN3CCOCC3)c(C)c2c1	-4.1%	-18.1%
38	Cc1ccc(S(=O)CCNC(=O)Cc2ccccc2)cc1 (configuration not stated)	6.4%	-5.6%
39	CCCCN(C)CCCNC(=O)c1cc(-c2cccnc2)nc2ccccc12	-1.3%	2.1%&-1.2%
40	O=C(NCCC1CCCCN1S(=O)(=O)c1ccccc1)C(=O)NCc1ccncc1 (configuration not stated)	1.8%	/
41	COc1ccccc1N(CC(=O)Nc1ccc2c(c1)OCCO2)S(=O)(=O)c1ccc(C)cc1	4.2%	11.9%
42	COc1ccc(O)c(C(=O)c2cnc3c(c2)c(C)nn3C)c1	8.8%	-13.7%
43	Cc1ccc(Nc2nc(CSc3nnc(-c4ccncc4)n3-c3ccccc3C)cs2)cc1	-20.3%	17.3%
44	OC[C@H]1O[C@H](OCCc2ccc(O)cc2)[C@H](O)[C@@H](O)[C@@H]1O	10.6%	/
45	N#CC1=C(N)N(c2ncn[nH]2)C2=C(C(=O)CCC2)C1c1ccc(F)cc1 (configuration not stated)	-14.7%	2.2%
46	CCOc1cccc(C2C(C(=O)c3ccc(C)o3)=C(O)C(=O)N2Cc2ccccc2)c1 (configuration not stated)	-2.0%	1.5%
47	CC1(C)CC(CNCCC(c2ccc(F)cc2)c2ccco2)CCO1 (configuration not stated)	-4.5%	0.5%
48	CCCNCc1cc(OCC)c(OCC(N)=O)cc1Br	7.1%	-0.7%

cpd	GLA inh pH 4.5	Rango-impB inh
37	/	-0.3%
38	2.8	1.9%
39	/	-3.8%
40	/	-0.5%
41	/	-1.0%
42	/	0.5%
43	-9.4	-2.5%
44	/	-1.4%
45	1.0	-2.3%
46	/	-4.7%
47	-8.8	-0.1%
48	-2.8	-2.8%

Laid out differently: results already given
#6 C[C@@H]1CN(Cc2nc(-c3ccc(Cl)cc3)no2)C[C@H](C)O1
  Rango dissoc inh: 0.3%; miR-21 reporter: -2.3%; GLA inh pH 4.5: -6.1; Rango-impB inh: 4.1%
#7 Cc1cc(C)c2nc(NC(=O)CN3C(=O)NC4(CCCC4)C3=O)sc2c1
  Rango dissoc inh: -7.0%; miR-21 reporter: /; GLA inh pH 4.5: /; Rango-impB inh: -0.3%

(next part)
cpd	SMILES	Rango dissoc inh	miR-21 reporter
49	COc1ccccc1N1CCN(C(=O)CC2NC3CCCCC3NC2=O)CC1 (configuration not stated)	/	-1.5%
50	Cc1cccc(CN2C3=NCCCN3c3ccccc32)c1	-0.2%	9.2%
51	Cc1ccc(S(=O)(=O)N(CC2CO2)c2cc(Cl)ccc2Cl)cc1 (configuration not stated)	-6.9%	6.5%
52	CCOc1ccc(NC(=O)CN2CCN(CC(=O)Nc3ccc4c(c3)OCCO4)CC2)cc1	0.1%	-0.2%
53	Cc1ccc(CNC(=O)COc2cc(O)c3c(c2)OC(C)(C)CC3=O)cc1	-9.2%	-6.8%
54	O=C1c2ccccc2C(=O)N1CC(O)CN1CCOCC1 (configuration not stated)	10.7%	-2.1%
55	Cc1ccccc1-c1ncc(CN2CCN(C3CCCC3)C(CCO)C2)cn1 (configuration not stated)	-19.9%	-11.6%
56	CCCCC1CC(CSc2ncn[nH]2)OC1=O (configuration not stated)	4.4%	-0.4%
57	Cc1cc2oc(C(=O)N(Cc3ccccc3)c3ccccn3)cc(=O)c2cc1Cl	-9.2%	-1.1%
58	CC1CCCCN1CCn1c(=S)[nH]c2cc3c(cc2c1=O)OCO3 (configuration not stated)	-2.3%	-0.1%
59	NS(=O)(=O)c1ccc(O)c(N2C(=O)c3cccc4c(C(=O)O)ccc(c34)C2=O)c1	9.2%	-37.4%
60	Nc1c(S(=O)(=O)c2ccccc2)c2nc3ccccc3nc2n1Cc1ccco1	?	22.0%

cpd	GLA inh pH 4.5	Rango-impB inh
49	3.0	/
50	/	0.0%
51	/	-5.1%
52	-1.1	-0.5%
53	/	-0.4%
54	3.1	1.2%
55	-7.7	-0.1%
56	6.7	1.2%
57	-5.0	-0.6%
58	-4.5	-3.3%
59	0.3	1.7%
60	27.6	?

(more compounds)
cpd	SMILES	Rango dissoc inh	miR-21 reporter
61	CCc1c(C)nc2ncnn2c1N1CCC(C(=O)N2CCN(c3ccc(F)cc3)CC2)CC1	5.5%	3.6%
62	COc1ccc2cc(C(C)c3nc4ccccc4c(=O)n3N)ccc2c1 (configuration not stated)	0.0%	-4.5%
63	COC(=O)c1ccccc1S(=O)(=O)N1CCC(C(=O)Nc2ccccc2N2CCOCC2)CC1	7.0%	/
64	COc1ccc(CCNC(=O)/C(C#N)=C/c2ccc(OCC(=O)NCC3CCCO3)cc2)cc1OC (configuration not stated)	-0.4%	0.2%
65	Cc1cc2nc(-c3cccc(NC(=O)c4ccc(Br)o4)c3C)oc2cc1C	0.4%	13.9%
66	Cn1ncc(Br)c1C(=O)N1CCCC1	0.8%	2.2%
67	CN(C)/C=N/c1c(C#N)cnn1-c1ccccc1	5.2%	4.1%

cpd	GLA inh pH 4.5	Rango-impB inh
61	12.4	-6.2%
62	2.0	1.8%
63	/	-3.0%
64	-3.0	0.3%
65	-1.2	-2.7%
66	/	1.2%
67	2.8	-1.4%

A portion of the library; the hit share may differ from the screen's.
